# Bioassay records: PubChem, National Center for Advancing Translational Sciences (NCATS)
# GLA inh pH 4.5 = blocks human alpha-galactosidase A at pH 4.5; P06280; purified enzyme, 4-MU-alpha-Gal fluorescence, pH 4.5; activity change, negative = inhibition, % at 105 µM; 230,000 tested, under 10 active; inconclusive = small, poorly fitted or top-dose-only inhibition, or a rising curve; inactive = flat fitted curve, though single readings scatter; no compound was filed as active;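 further: 0% = full activity with enzyme and -100% = basal without enzyme; dose as in the result columns while the protocol names 77 µM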
# Target sequence (P06280 whole entry, looked up): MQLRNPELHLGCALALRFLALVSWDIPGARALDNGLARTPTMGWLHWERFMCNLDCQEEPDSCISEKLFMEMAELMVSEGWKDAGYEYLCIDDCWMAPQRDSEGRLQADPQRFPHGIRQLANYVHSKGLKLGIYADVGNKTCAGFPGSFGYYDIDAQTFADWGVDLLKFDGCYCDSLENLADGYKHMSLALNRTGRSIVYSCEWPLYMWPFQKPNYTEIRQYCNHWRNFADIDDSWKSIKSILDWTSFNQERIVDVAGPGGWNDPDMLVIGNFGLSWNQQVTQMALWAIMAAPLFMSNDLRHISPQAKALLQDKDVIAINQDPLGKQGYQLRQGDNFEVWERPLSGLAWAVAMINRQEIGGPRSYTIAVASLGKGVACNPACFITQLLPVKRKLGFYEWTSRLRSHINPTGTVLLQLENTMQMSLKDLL
# * = called active by the depositor; ? = inconclusive; & = joins results of further samples. A portion of the library (hit frequency here may not be typical).
SMILES,GLA inh pH 4.5
COc1cc2c(cc1O)CCNC2C (stereo unspecified),-1.5
CC(=O)O[C@H]1C[C@@H](O[C@@H]2[C@H](C)O[C@H](O[C@@H]3[C@H](C)O[C@H](O[C@@H]4CC[C@@]5(C)[C@@H](CC[C@]6(C)[C@]5(C)C[C@H](O)[C@]5(C)[C@@H](C7=CC(=O)OC7)CC[C@@]56O)C4)C[C@@H]3O)C[C@@H]2O)O[C@@H](C)[C@H]1O[C@H]1O[C@@H](CO)[C@@H](O)[C@@H](O)[C@@H]1O,-5.1
CC(C)(C#N)O[C@H]1OC(CO)C(O)C(O)C1O (stereo partly specified),-3.2
C[C@H](Cc1ccc2c(c1)OC(C(=O)O)(C(=O)O)O2)NC[C@H](O)c1cccc(Cl)c1,-5.7&-6.7
CC(C)(O)[C@@H]1[C@H]2OC(=O)[C@@H]1[C@]1(O)C[C@H]3O[C@]34C(=O)O[C@H]2[C@@]14C (tested in a mixture with another compound),3.2
O=C(/C=C\c1ccc(Cl)cc1)N[C@@]12CCC(=O)[C@@H]3Oc4c(O)ccc5c4[C@@]31CCN(CC1CC1)[C@@H]2C5,-1.7
CC1=C2C[C@H]3[C@@H](CC=C4C[C@@H](O)CC[C@@]43C)[C@@H]2CC[C@]12O[C@@H]1C[C@H](C)CN[C@H]1C2C (stereo partly specified),-8.4
CCCCC/C=C\C/C=C\C/C=C\C/C=C\CCCC(=O)NCc1ccc(O)c(OC)c1,-12.8
CNC(Cc1c[nH]c2ccccc12)C(=O)O (stereo unspecified),7.1
NC(=NCCCC(N)C(=O)O)N[N+](=O)[O-] (stereo unspecified),-3.8
NCCCP(=O)(O)CC1CCCCC1,-5.4
CN1C[C@@H](CO)C=C2c3cccc4[nH]cc(c34)CC21 (stereo partly specified),0.0
Nc1ncnc2c1ncn2[C@@H]1O[C@H](COP(=O)(O)CP(=O)(O)OP(=O)(O)O)[C@H](O)[C@H]1O,1.3
Cc1ccccc1-c1cncnc1NCCc1cnc[nH]1,-6.6
CCC1(C)CC(=O)NC(=O)C1,0.9
Clc1ccc([C@@H](OCCN2CCCCC2)c2ccccc2)cc1,-0.9
Cc1cc(OC(=O)N2CCCCC2)c(C(C)C)cc1[N+](C)(C)C,5.6
COC(=O)[C@]1(C)CC[C@@]2(C)CC[C@@]3(C)C4=CCc5c(cc(O)c(O)c5C)[C@]4(C)CC[C@@]3(C)C2C1 (stereo partly specified),4.4
CNC(C)Cc1ccccc1OC (stereo unspecified),-1.5
C[C@@H]1O[C@H](C[N+](C)(C)C)C[C@H]1O,4.8
CC1CC[C@@]2(OC1)O[C@@H]1[C@@H](O)[C@H]3C4CC[C@H]5C[C@@H](O[C@@H]6O[C@H](CO)[C@H](O[C@@H]7O[C@H](CO)[C@@H](O)[C@H](O[C@@H]8OC[C@@H](O)[C@H](O)[C@H]8O)[C@H]7O[C@@H]7O[C@H](CO)[C@@H](O)[C@H](O[C@@H]8O[C@H](CO)[C@@H](O)[C@H](O)[C@H]8O)[C@H]7O)[C@H](O)[C@H]6O)[C@H](O)C[C@]5(C)C4CC[C@]3(C)[C@H]1[C@@H]2C (stereo partly specified),-8.9
COc1ccc2c(c[n+](C)c3c4cc5c(cc4ccc23)OCO5)c1OC,-4.8&-9.1
CC[C@]1(O)CC(O[C@@H]2CC(N(C)C)C(O)C(C)O2)c2c(cc3c(c2O)C(=O)c2c(O)cccc2C3=O)C1C(=O)OC (stereo partly specified),2.0
CCC[C@@H]1CC2=CC(=O)CC[C@]2(C)[C@@H]2CC[C@@]3(C)[C@H](CC[C@]3(O)CCC(=O)O)[C@H]12,0.4
CC1(C)C(=O)C=C[C@@]2(C)C1CC(O)[C@]1(C)C2CC[C@@]2(C)C(c3ccoc3)OC(=O)C3O[C@]312 (stereo partly specified),-2.2
C=C(C)C1Cc2c(ccc3c(=O)c4c(oc23)COc2cc(OC)c(OC)cc2-4)O1 (stereo unspecified),-2.7&4.3
CN1[C@@H]2CC[C@H]1CC(O)C2 (stereo partly specified),1.2
CN1CCc2cc3c(cc2C1C1OC(=O)c2c1ccc1c2OCO1)OCO3 (stereo unspecified),1.9
CCCCCCCCCc1ccc(O)cc1,-5.4
Clc1ccc(CS[C@@H](Cn2ccnc2)c2ccc(Cl)cc2Cl)cc1,-3.9
CN1CCc2cc3c(cc2[C@@H]1[C@@H]1OC(=O)c2c1ccc1c2OCO1)OCO3,-4.0
CN1CCc2cc(Cl)c(O)cc2[C@H]2c3ccccc3CC[C@@H]21,-2.8
O=C(NC(=O)c1c(F)cccc1F)Nc1ccc(Cl)cc1,-0.8
O=C(O)c1ccccc1-c1c2cc(Br)c(=O)cc-2oc2[c]([Hg])c(O)c(Br)cc12,-0.5&-5.9
CC1OC(OC2C(O)CC(OC3C(O)CC(OC4CCC5(C)C(CCC6C5CCC5(C)C(C7=CC(=O)OC7)CCC65O)C4)OC3C)OC2C)CC(O)C1O (stereo unspecified),-24.3
CC1CC[C@@]2(NC1)OC1CC3C4CC[C@@H]5CC(O)CC[C@@]5(C)C4CC[C@]3(C)C1C2C (stereo partly specified),-0.5
CCc1ccc(C(=O)NN(C(=O)c2cc(C)cc(C)c2)C(C)(C)C)cc1,-2.1
COC(=O)C1=CO[C@@H](C)[C@@H]2CN3CC[C@]4(C(=O)Nc5c4ccc(OC)c5OC)[C@H]3C[C@H]12,-5.6
Cc1ncsc1CCCl,-0.7
CC[C@]1(C2=NCCN2)Cc2ccccc2O1,-9.8
C=C(C)c1cc2cc(C(C)=O)c(O)cc2o1,-5.0&-2.3
O=C(O)c1nn(Cc2ccc(Cl)c(Cl)c2)c2ccccc12,6.2
CCN(CC)C(=O)N[C@@H]1C[C@H]2c3cccc4[nH]cc(c34)C[C@@H]2N(C)C1,-1.5&-7.0
CCCCCCC(C)(C)c1ccc([C@@H]2C[C@H](O)CC[C@@H]2CCCO)c(O)c1,-16.5
CS(=N)(=O)CC[C@H](N)C(=O)O (stereo partly specified),2.4

# Taken from above.
# COC(=O)C1=CO[C@@H](C)[C@@H]2CN3CC[C@]4(C(=O)Nc5c4ccc(OC)c5OC)[C@H]3C[C@H]12 in GLA inh pH 4.5 is listed with -5.6
# CS(=N)(=O)CC[C@H](N)C(=O)O (stereo partly specified) in GLA inh pH 4.5 is listed with 2.4

# (continued)
SMILES,GLA inh pH 4.5
CCCCCCCCCCCCCCCCOC[C@@H](COP(=O)([O-])OCC[N+](C)(C)C)OC(C)=O,-7.9
C[C@]12C=CC(=O)C=C1CC[C@@H]1[C@@H]2CC[C@@]2(C)[C@H]1CC[C@]2(C)O,0.1
CC1C(=O)OC2O[C@]3(C)CC[C@H]4C(C)CCC1[C@]24OO3 (stereo partly specified),-2.6
CCC1(CC)C(=O)NC(=O)NC1=O,-6.0
CC(C)c1cc2c(c(O)c1O)[C@]1(C(=O)O)CCCC(C)(C)C1CC2 (stereo partly specified),19.8
CC1=CCCC2C1(C)CCC(C)C2(C)CC/C(C)=C/C[n+]1cn(C)c2c(N)ncnc21 (stereo unspecified),-2.6
N#CC(C#N)=Cc1cc(O)c(O)c([N+](=O)[O-])c1,-7.5
NC(Cn1ccc(=O)[nH]c1=O)C(=O)O (stereo unspecified),3.3
CN(N=O)c1cc(O)ccc1O,-6.2
CC(=O)OC1CC(OC(C)=O)[C@]2(C)C(CC(OC(C)=O)[C@]3(C)C2CC[C@@]2(C)C(c4ccoc4)C(=O)C4O[C@]432)C1(C)C (stereo partly specified),-8.6
CN[C@@H](C)[C@H]1CC[C@@H](N)[C@@H](O[C@@H]2[C@@H](O)[C@@H](O[C@H]3OC[C@@](C)(O)[C@@H](NC)[C@@H]3O)[C@H](N)C[C@@H]2N)O1 (tested in a mixture with another compound),6.3
CC(N)C(O)c1ccc(O)c(O)c1 (stereo unspecified),3.7&-10.9
CCCc1cc2c(n1CCO)C(C)C1CN(C(=O)c3ccccc3)C(C)(C(=O)OC)C21 (stereo unspecified),2.8
NC(Cc1cc(O)c(O)cc1O)C(=O)O (stereo unspecified),-8.7
C[C@]12CC[C@H](O)CC1=CCC1C2CC[C@]2(C)C(=O)CC[C@@H]12 (stereo partly specified),-3.6&-3.7&-8.2
CC(=O)NBr,-2.2
C[C@H]1CCC/C=C/C2C[C@H](O)C[C@H]2[C@H](O)/C=C/C(=O)O1 (stereo partly specified),0.8
N#CC(O[C@@H]1OC(COC2OC(CO)C(O)C(O)[C@@H]2O)C(O)C(O)C1O)c1ccccc1 (stereo partly specified),-0.1
COC(=O)[C@H]1C[C@H]2CC[C@H](O)C[C@H]2N1CC1CC1,4.1
CC1(C)C(O)CC(=O)[C@]2(C)C1CC(=O)[C@]1(C)C2CC[C@@]2(C)C(c3ccoc3)OC(=O)C3O[C@@]321 (stereo partly specified),4.2
CC(C)[C@]1(NC(=O)[C@@H]2C=C3c4cccc5[nH]cc(c45)C[C@H]3N(C)C2)O[C@@]2(O)C3CCCN3C(=O)[C@H](Cc3ccccc3)N2C1=O (stereo partly specified),?
CC1(C)N(O)C(c2ccc(C(=O)O)cc2)=[N+]([O-])C1(C)C,-10.6
C/C=C(\C)C(=O)OC1CC(OC(C)=O)[C@@]2(C(=O)OC)COC3C2[C@@]12CO[C@](O)(C(=O)OC)C2[C@](C)(C12OC1(C)C1CC2OC2OC=C[C@]21O)C3O (stereo partly specified),-11.3
CNc1ccccc1C(=O)O,20.9
N[C@H](CP(=O)(O)O)C(=O)O,-6.8
CN1CCN(c2ccc3ccccc3n2)CC1,-3.3&-11.1
CCCN1CCC[C@@H]2Cc3cn[nH]c3C[C@H]21,-16.4
CCCN1CCCC(c2cccc(O)c2)C1 (stereo unspecified),-0.4
CNC(=O)O/N=C/C(C)(C)SC,-2.2
CC(C)(C)NC[C@H](O)c1cc(Cl)c(N)c(Cl)c1,-0.4
CC1CC(O)[C@]2(O)[C@]13CC(=O)OC[C@@]2(C)[C@@](C)(O)C(=O)C3 (stereo partly specified),4.3
Oc1ccc2c3c1O[C@H]1c4oc5ccccc5c4C[C@]4(O)[C@H](C2)N(CC2CC2)CC[C@@]314,-7.6
COc1cc2c(cc1O)C(CCc1ccc(Cl)cc1)N(C)CC2 (stereo unspecified),-6.3
CC(C)(C)[C@]1(O)C[C@@H]2OC(=O)CC23C(=O)O[C@@H]2OC(=O)[C@H](O)C231 (stereo partly specified),-1.7
C/C(=C\C=C/[C@@H](C)C(=O)O)[C@H]1CN[C@H](C(=O)O)[C@@H]1CC(=O)O,3.3
Cc1[nH]c2ccc(Cl)cc2c1C1=CCNCC1,-6.7
Oc1ccc2c3c1OC1C(O)CC[C@]4(O)C(C2)N(CC2CCC2)CC[C@]314 (stereo partly specified),-1.4
Fc1ccc(C(OCCN2CCN(C/C=C\c3ccccc3)CC2)c2ccc(F)cc2)cc1,-22.9
CC(=O)Oc1c2c(c(CC=C(C)C)c3c1C(=O)C1=CC4CC5C(C)(C)OC(C/C=C(\C)C(=O)O)(C4=O)[C@]15O3)OC(C)(CCC=C(C)C)C=C2 (stereo partly specified),-25.1
C#CCOS(=O)OC1CCCCC1Oc1ccc(C(C)(C)C)cc1 (stereo unspecified),-4.7
C[C@H]1CN(C2CCC(C#N)(c3ccc(F)cc3)CC2)CC[C@@]1(C(=O)O)c1ccccc1 (stereo partly specified),-0.1
COc1ccc2c(c1OC)C(=O)O[C@H]2[C@H]1c2cc3c(cc2CCN1C)OCO3,-7.6
CCCN(CCC)[C@@H]1CCc2ccc(O)cc2C1,-4.3&-6.5
CC(C)C[C@H]1C(=O)N2CCC[C@@H]2[C@@]2(O)O[C@](NC(=O)[C@@H]3C=C4c5cccc6[nH]cc(c56)C[C@@H]4N(C)C3)(C(C)C)C(=O)N12,-8.0
NC(N)=Nc1ccc2[nH]c3c(c2c1)C[C@]1(O)[C@@H]2Cc4ccc(O)c5c4[C@]1(CCN2CC1CC1)[C@@H]3O5,2.0

# Pulled by structure from above, six records:
SMILES,GLA inh pH 4.5
COc1cc2c(cc1O)C(CCc1ccc(Cl)cc1)N(C)CC2 (stereo unspecified),-6.3
CC(C)(C)[C@]1(O)C[C@@H]2OC(=O)CC23C(=O)O[C@@H]2OC(=O)[C@H](O)C231 (stereo partly specified),-1.7
NC(N)=Nc1ccc2[nH]c3c(c2c1)C[C@]1(O)[C@@H]2Cc4ccc(O)c5c4[C@]1(CCN2CC1CC1)[C@@H]3O5,2.0
CC1CC(O)[C@]2(O)[C@]13CC(=O)OC[C@@]2(C)[C@@](C)(O)C(=O)C3 (stereo partly specified),4.3
CC(C)C[C@H]1C(=O)N2CCC[C@@H]2[C@@]2(O)O[C@](NC(=O)[C@@H]3C=C4c5cccc6[nH]cc(c56)C[C@@H]4N(C)C3)(C(C)C)C(=O)N12,-8.0
COc1ccc2c(c1OC)C(=O)O[C@H]2[C@H]1c2cc3c(cc2CCN1C)OCO3,-7.6

# New compounds follow.
SMILES,GLA inh pH 4.5
CNC(=O)Oc1cccc2c1OC(C)(C)C2,0.6
CC(C)CCCC1(C)C=Cc2c(O)c3c(c(CCC(C)C)c2O1)OC12C(CC4CC1C(C)(C)OC2(CCC(C)C(=O)O)C4O)C3=O (stereo unspecified),-9.8
CCCCC/C=C\C/C=C\C/C=C\CCCCC(=O)NCCO,-3.1
Oc1ccc2[nH]cc(CCCCN3CC=C(c4ccccc4)CC3)c2c1,-13.8
COC(C)C(O)(C(=O)OC1=CCN2CC[C@H](O)[C@H]12)C(C)C (stereo partly specified),2.2
CNC(=O)OCC[N+](C)(C)C,-1.3
C=C(C)[C@H]1Cc2c(ccc3c2O[C@@H]2COc4cc(OC)c(OC)cc4[C@@H]2C3=O)O1,-28.6&0.2
NC[C@H](CP(=O)(O)O)c1ccc(Cl)cc1,-10.9
CN[C@@H]1C[C@H](c2ccc(Cl)c(Cl)c2)c2ccccc21,-8.7

# Of the compounds above, these contain bromine.
SMILES,GLA inh pH 4.5
O=C(O)c1ccccc1-c1c2cc(Br)c(=O)cc-2oc2[c]([Hg])c(O)c(Br)cc12,-0.5&-5.9
CC(=O)NBr,-2.2
